From PubChem BioAssay
Vaccinia stage: blocks a specific stage of Vaccinia orthopoxvirus infection | 89,000 tested, 0.01% active | Vaccinia-infected cells, mCherry/Venus stage reporter fluorescence; hits give low values; some inactives read as strong as hits | activity change (mCherry), % (no concentration beside the values) | AID 1053133;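 active = mCherry past -33% and 40 or more points under the early reporter, replicates agreeing; inconclusive = past -33% without that gap or agreement; tested in A549 cells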;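 also: scaled between vehicle wells and reference inhibitor wells; 23 nL library stock went into each well; one replicate is shown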
Vaccinia stage Venus: second read-out of Vaccinia stage, no call of its own (marks repeat the call); activity change (Venus), %; measured here: Venus reporter, other viral stage;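 negative = less Venus signal; first of two replicates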
* hit, by the source's call; ? = inconclusive; · = no result given; & = joins results of further samples.

SMILES	Vaccinia stage	Vaccinia stage Venus
O=C(c1cccnc1)N1CC2(C1)[C@@H](c1ccccc1)[C@@H](CO)N2Cc1cccnc1	5	8
COCC(=O)NC[C@@H]1[C@H](c2ccccc2)[C@H](CO)N1C(=O)c1ccccc1	6	6
Cc1noc(C)c1NC(=O)Nc1ccc2c(c1)CC(=O)N([C@H](C)CO)C[C@H](C)[C@@H](CN(C)S(=O)(=O)c1cccs1)O2	15	-3
COCC(=O)N1C[C@@H](C)[C@H](OC)CN(C)C(=O)c2cc(NC(=O)C3CCC3)ccc2OC[C@@H]1C	14	7
CN1C(=O)c2cc(NC(=O)C3CCOCC3)ccc2OC[C@H]2O[C@@H](CC(=O)NCC3CCCCC3)CC[C@H]21	5	7
CCC(=O)Nc1ccc2c(c1)C(=O)N(C)C[C@@H](OC)[C@H](C)CN(CCc1ccccc1)[C@H](C)CO2	1	-2
COc1ccc(NC(=O)N(C)C[C@@H]2Oc3ccc(NS(=O)(=O)c4ccccc4)cc3C(=O)N([C@@H](C)CO)C[C@@H]2C)cc1	16	13
C[C@H]1CN([C@@H](C)CO)S(=O)(=O)c2ccc(-c3ccncc3)cc2O[C@@H]1CN(C)C(=O)CN(C)C	18	13
C[C@@H]1CN([C@@H](C)CO)C(=O)Cc2cc(NS(=O)(=O)c3ccc(F)cc3)ccc2O[C@@H]1CN(C)C(=O)Nc1ccccc1	10	8
C[C@@H]1CN([C@H](C)CO)C(=O)Cc2cc(NC(=O)Nc3ccc4c(c3)OCO4)ccc2O[C@H]1CN(C)CC1CC1	21	18
O=C(C[C@H]1C[C@@H]2c3cc(NC(=O)Nc4ccc(C(F)(F)F)cc4)ccc3O[C@@H]2[C@@H](CO)O1)NCc1cccnc1	?	·
CC=Cc1ccc2n(c1=O)C[C@H]1[C@H](CO)[C@@H](C(=O)NCCc3cn(C)cn3)N(C(=O)C3CCCC3)[C@@H]21 (mixture of isomers)	20	11
CCCNC(=O)N1CC2(CN(S(C)(=O)=O)C2)c2c(n(C)c3cc(OC)ccc23)[C@@H]1CO	17	5
COCC#Cc1ccc2c(c1)O[C@H](CN(C)C(=O)CC1CC1)[C@@H](C)CN([C@@H](C)CO)S2(=O)=O	10	9
C[C@@H]1CN([C@@H](C)CO)C(=O)c2cc(NS(=O)(=O)c3ccc(F)cc3)ccc2O[C@@H](C)CCCCO[C@@H]1CN(C)C(=O)c1ccccc1	?	·
COc1ccc(S(=O)(=O)Nc2ccc3c(c2)C(=O)N([C@@H](C)CO)C[C@@H](C)[C@@H](CN(C)C(=O)C2CCCCC2)OCCCC[C@H](C)O3)cc1	?	·
O=C(C[C@H]1CC[C@H]2[C@@H](COC[C@H](O)CN2Cc2cccc(F)c2)O1)NCCc1ccncc1	1	2
CCCNC(=O)Nc1ccc2c(c1)C(=O)N(C)C[C@H](OC)[C@H](C)CN[C@H](C)CO2	8	8
COc1ccc2c3c(n(C)c2c1)[C@H](CO)N(Cc1ccccc1F)CC31CN(C(C)=O)C1	4	-3
O=C(C[C@@H]1CC[C@H]2[C@@H](COC[C@@H](O)CN2C(=O)C2CC2)O1)NCc1ccccc1Cl	9	0
C[C@@H]1CN([C@@H](C)CO)C(=O)c2cc(NC(=O)Cc3cn(C)c4ccccc34)ccc2O[C@H]1CN(C)C	18	11
COc1ccc(NC(=O)N(C)C[C@@H]2Oc3c(NC(=O)C4CCOCC4)cccc3C(=O)N([C@@H](C)CO)C[C@H]2C)cc1	1	3
O=C(Nc1ccc(-c2ccccc2)cc1)[C@@H]1[C@@H](CO)[C@@H]2Cn3c(cccc3=O)[C@@H]2N1CC1CCOCC1	22	12
CC=Cc1ccc2n(c1=O)C[C@H]1[C@H](CO)[C@@H](C(=O)OC)[C@@H]2N1CC1CC1 (mixture of isomers)	12	20
O=C(Cc1ccccn1)N[C@@H]1CC[C@@H](CCn2cc(-c3ccccc3)nn2)O[C@@H]1CO	3	1
O=C(C[C@H]1CC[C@H](NC(=O)Nc2ccc(C(F)(F)F)cc2)[C@@H](CO)O1)NCc1cc(F)cc(F)c1	?	·
C[C@H]1CN([C@@H](C)CO)S(=O)(=O)c2ccc(C#Cc3ccccc3)cc2O[C@@H]1CN(C)S(C)(=O)=O	-27	-15
O=C(c1cccc(F)c1)N1C[C@@H]2[C@H](c3ccccc31)[C@H](CO)N2C(=O)c1ccccn1	11	4
COc1ccc(C#Cc2ccc([C@@H]3[C@H]4CN(C(=O)Nc5ccccc5)CCCCN4[C@H]3CO)cc2)cc1	?	·
CC(=O)Nc1ccc2c(c1)C(=O)N(C)[C@@H]1CC[C@H](CC(=O)NCc3ccc(Cl)cc3)O[C@H]1CO2	12	12

A stretch of the results above:
SMILES	Vaccinia stage	Vaccinia stage Venus
CCCNC(=O)Nc1ccc2c(c1)C(=O)N(C)C[C@H](OC)[C@H](C)CN[C@H](C)CO2	8	8
COc1ccc2c3c(n(C)c2c1)[C@H](CO)N(Cc1ccccc1F)CC31CN(C(C)=O)C1	4	-3
O=C(C[C@@H]1CC[C@H]2[C@@H](COC[C@@H](O)CN2C(=O)C2CC2)O1)NCc1ccccc1Cl	9	0
C[C@@H]1CN([C@@H](C)CO)C(=O)c2cc(NC(=O)Cc3cn(C)c4ccccc34)ccc2O[C@H]1CN(C)C	18	11
COc1ccc(NC(=O)N(C)C[C@@H]2Oc3c(NC(=O)C4CCOCC4)cccc3C(=O)N([C@@H](C)CO)C[C@H]2C)cc1	1	3
O=C(Nc1ccc(-c2ccccc2)cc1)[C@@H]1[C@@H](CO)[C@@H]2Cn3c(cccc3=O)[C@@H]2N1CC1CCOCC1	22	12
CC=Cc1ccc2n(c1=O)C[C@H]1[C@H](CO)[C@@H](C(=O)OC)[C@@H]2N1CC1CC1 (mixture of isomers)	12	20
O=C(Cc1ccccn1)N[C@@H]1CC[C@@H](CCn2cc(-c3ccccc3)nn2)O[C@@H]1CO	3	1
O=C(C[C@H]1CC[C@H](NC(=O)Nc2ccc(C(F)(F)F)cc2)[C@@H](CO)O1)NCc1cc(F)cc(F)c1	?	·
C[C@H]1CN([C@@H](C)CO)S(=O)(=O)c2ccc(C#Cc3ccccc3)cc2O[C@@H]1CN(C)S(C)(=O)=O	-27	-15

The results go on:
SMILES	Vaccinia stage	Vaccinia stage Venus
Cc1ccc(S(=O)(=O)N(C)C[C@@H]2OCCCC[C@H](C)Oc3ccc(NS(=O)(=O)c4ccc(F)cc4)cc3C(=O)N([C@H](C)CO)C[C@H]2C)cc1	?	·
CO[C@H]1CN(C)C(=O)c2ccc(NC(=O)c3cc(C)on3)cc2OC[C@H](C)N(C(C)=O)C[C@H]1C	-3	2
C[C@@H]1CN([C@@H](C)CO)C(=O)c2cc(NC(=O)Cn3cnnn3)ccc2O[C@@H]1CN(C)Cc1ccc2c(c1)OCO2	3	4
CCN1[C@@H]2Cn3c(ccc(-c4ccncc4)c3=O)[C@H]1[C@@H](C(=O)Nc1ccccc1)[C@@H]2CO	-1	2
CO[C@H]1CN(C)C(=O)c2ccc(NC(=O)c3ccccc3F)cc2OC[C@@H](C)N(C(=O)c2ccccc2F)C[C@@H]1C	-3	-3
C[C@H](CO)N1C[C@H](C)[C@@H](CN(C)C(=O)c2cnccn2)Oc2cc(C3=CCCC3)ccc2S1(=O)=O	6	8
Cc1noc(C)c1S(=O)(=O)Nc1ccc2c(c1)C(=O)N([C@@H](C)CO)C[C@H](C)[C@H](CN(C)C(=O)Nc1ccccc1)O2	-4	1
C[C@@H]1CN([C@@H](C)CO)C(=O)c2cccc(NC(=O)CCCCCC(=O)Nc3ccccc3N)c2O[C@@H]1CN(C)S(=O)(=O)c1ccc(Cl)cc1	-6	-2
C[C@H](CO)N1C[C@H](C)[C@H](CN(C)CC2CC2)Oc2c(NC(=O)CCCCCC(=O)Nc3ccccc3N)cccc2C1=O	13	0
C[C@@H]1CN([C@H](C)CO)C(=O)c2cc(-c3cccnc3)cnc2O[C@H]1CN(C)C(=O)Nc1ccccc1	13	15
C[C@@H]1CN([C@H](C)CO)C(=O)c2cc(-c3cccc(C#N)c3)cnc2O[C@@H]1CN(C)C	18	11
CN1C(=O)c2cc(NS(C)(=O)=O)ccc2OC[C@H]2O[C@@H](CC(=O)N3CCOCC3)CC[C@@H]21	9	11
C[C@@H]1CN([C@H](C)CO)C(=O)c2cc(NC(=O)C3CCCCC3)ccc2O[C@@H](C)CCCCO[C@H]1CN(C)S(=O)(=O)c1ccc(F)cc1	?	·
COCC#Cc1ccc2c(c1)O[C@H](CN(C)S(C)(=O)=O)[C@H](C)CN([C@H](C)CO)S2(=O)=O	4	8
CCCN1C[C@@H](C)[C@H](OC)CN(C)C(=O)c2cc(NC(=O)c3ccccc3F)ccc2OC[C@H]1C	-20	-20
C[C@@H]1CN([C@@H](C)CO)C(=O)CCCn2cc(nn2)CO[C@H]1CN(C)C(=O)Nc1ccc(F)cc1	6	4
C/C=C/c1ccc([C@H]2[C@H](CO)N(C(=O)CC)[C@H]2CNC(=O)C2CC2)cc1	-2	3
C[C@@H]1CN([C@H](C)CO)C(=O)c2cc(NS(=O)(=O)c3cccs3)ccc2O[C@H]1CN(C)C(=O)Nc1ccccc1	26	30
COc1ccc(S(=O)(=O)N[C@@H]2CC[C@@H](CCn3cc(-c4cccc(F)c4)nn3)O[C@@H]2CO)cc1	4	10
O=C(C[C@H]1CC[C@@H](NS(=O)(=O)c2ccccc2)[C@H](CO)O1)NCc1ccccc1F	-7	1
C[C@@H]1CN([C@@H](C)CO)C(=O)Cc2cc(N(C)C)ccc2O[C@H]1CN(C)S(=O)(=O)c1cn(C)cn1	18	2
CO[C@@H]1CN(C)C(=O)c2cc(NC(=O)C3CCCCC3)ccc2OC[C@@H](C)N(Cc2cccnc2)C[C@H]1C	-18	-15
Cc1noc(C)c1NC(=O)N(C)C[C@H]1Oc2ccc(NS(=O)(=O)c3ccccc3)cc2CC(=O)N([C@H](C)CO)C[C@@H]1C	19	5
COc1ccc(S(=O)(=O)Nc2cccc3c2O[C@H](CN(C)Cc2ccc4c(c2)OCO4)[C@H](C)CN([C@H](C)CO)C3=O)cc1	14	5
O=C(NCC[C@H]1CC[C@@H](NS(=O)(=O)c2ccccc2)[C@@H](CO)O1)c1cc(Cl)cc(Cl)c1	-24	-11
Cc1noc(C)c1S(=O)(=O)N(C)C[C@@H]1Oc2ccc(NC(=O)NC3CCCCC3)cc2CC(=O)N([C@@H](C)CO)C[C@H]1C	8	-2
O=C(C[C@@H]1C=C[C@H](NC(=O)Nc2ccccc2F)[C@@H](CO)O1)NCc1ccccc1	16	18
O=C(Nc1cccc(F)c1)N1CCCCN2[C@H](CO)[C@@H](c3ccc(C#Cc4cccnc4)cc3)[C@H]2C1	?	·
C[C@H](CO)N1C[C@H](C)[C@@H](CN(C)Cc2ccccc2)Oc2cc(Br)ccc2S1(=O)=O	?	·
COc1ccc(CN2CC3(CN(C(C)=O)C3)c3c(n(C)c4cc(OC)ccc34)[C@H]2CO)cc1	17	5
CO[C@@H]1CN(C)C(=O)c2cc(NC(=O)C3CCCCC3)ccc2OC[C@@H](C)N(Cc2nccs2)C[C@H]1C	-15	-11
C[C@H](CO)N1C[C@H](C)[C@H](CN(C)C(=O)CC2CC2)Oc2cc(Br)ccc2S1(=O)=O	13&10	8&1
Cc1noc(C)c1S(=O)(=O)Nc1ccc2c(c1)C(=O)N([C@@H](C)CO)C[C@H](C)[C@H](CN(C)S(=O)(=O)c1ccccc1)O2	4	-5
COc1cccc(CN2[C@@H]3CN(C(=O)C4CC4)c4ccccc4[C@@H]3[C@@H]2CO)c1	10	8
C[C@@H]1CN([C@@H](C)CO)C(=O)c2cc(NS(=O)(=O)c3ccccc3)ccc2O[C@@H]1CN(C)S(=O)(=O)c1cn(C)cn1	-2	2
CC(=O)N1[C@H](CNC(=O)C2CC2)[C@@H](c2ccc(-c3ccc(F)cc3)cc2)[C@@H]1CO	-15	-2
C[C@@H]1CN([C@H](C)CO)C(=O)c2cc(C#C[C@@H](C)O)cnc2O[C@@H]1CN(C)Cc1cncnc1	2	7
COc1ccccc1-c1cn(CC[C@H]2CC[C@H](NC(=O)C3CCC3)[C@H](CO)O2)nn1	-7	-4
COc1ccc(NC(=O)N(C)C[C@@H]2Oc3ccc(NC(=O)CCCN(C)C)cc3C(=O)N([C@H](C)CO)C[C@H]2C)cc1	9	1
O=C(NCC[C@@H]1CC[C@@H](NS(=O)(=O)c2ccc(F)cc2)[C@@H](CO)O1)Nc1ccc(Cl)cc1	-6	-4
COc1ccc(CNC(=O)C[C@H]2CC[C@@H](NC(=O)CN(C)C)[C@H](CO)O2)cc1	0	-4
C[C@@H]1CN([C@H](C)CO)C(=O)c2cc(NC(=O)Cc3cn(C)c4ccccc34)ccc2O[C@H]1CN(C)Cc1ccccc1	-14	-14
CNC[C@@H]1Oc2c(NC(=O)Nc3c(C)noc3C)cccc2C(=O)N([C@@H](C)CO)C[C@H]1C	14	8
C[C@@H]1CN([C@@H](C)CO)S(=O)(=O)c2ccc(-c3cccc(F)c3)cc2O[C@@H]1CN(C)CC1CC1	-11	-10
CO[C@H]1CN(C)C(=O)c2cc(NC(=O)Cc3ccccc3)ccc2OC[C@@H](C)N(C(=O)c2ccccc2F)C[C@@H]1C	-14	-11
O=C(C[C@H]1C[C@@H]2c3cc(NC(=O)c4ccc5c(c4)OCO5)ccc3O[C@@H]2[C@H](CO)O1)NCC(F)(F)F	9	10
O=C(c1cnccn1)N1CC(=O)N2[C@H](C1)[C@H](c1ccc(C#CC3CCCCC3)cc1)[C@@H]2CO	-31	-23
O=C(C[C@H]1CC[C@@H]2[C@H](COC[C@H](O)CN2S(=O)(=O)c2ccccc2)O1)NCCN1CCCC1	6	0
O=C(C[C@@H]1CC[C@@H]2NC[C@H](O)COC[C@H]2O1)Nc1ccccc1	-13	-11
COc1cccc(-c2ccc3c(c2)[C@H]2[C@H](CCN2C(=O)C2CCCC2)[C@@H](CO)N3)c1	?	·
N#C[C@@H]1N[C@@H](CO)[C@@H]1c1ccc(C#Cc2ccc(F)cc2)cc1	-12	-10

Some of the compounds tested; count on the stated rates, not on these rows.
